# Methyltransferases – Primary Screen for Target Class Profiling of Small Molecule Inhibitors of Methyltransferases. purified enzyme, MTase-Glo SAH luminescence; active compounds read low. calls only at 40 µM. 25,000 tested, 3.9% active. AID 1745853, 2022; active = -50% or lower on at least one of six enzymes; inconclusive = the cases between; inactive = as a rule above -30% on all six;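 note: enzymes were COMT GAMT GNMT HNMT NNMT and PNMT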
#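 Each enzyme was reacted with SAM and its substrate, with compounds tested once at 40 uM; SAH formed was read by MTase-Glo luminescence.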
# Calls only; i = inactive; ? = inconclusive; + = active, no number. % is set by controls: 0 for no effect and ±100 for the full control effect.
canonical_smiles,Methyltransferases
CC(=O)Nc1c2n(c3ccccc13)CC(C)(C(=O)NC1CCCC1)N(Cc1ccccc1)C2=O (configuration not stated),i
O=C1CCN(Cc2cccc(F)c2)CCCOCCN1,i
CCOC(=O)c1cccc(NS(=O)(=O)c2ccc3c(c2)NC(=O)CC(=O)N3)c1,i
CC1CCC(NC(=O)C2(C)Cn3c(cc4sccc43)C(=O)N2CCN2CCCCCC2)CC1 (configuration not stated),i
OC[C@H]1O[C@@H](OCCc2ccc(O)cc2)[C@H](O[C@@H]2OC[C@](O)(CO)[C@H]2O)[C@@H](O)[C@@H]1O,i
O=C(NCCc1csc(-c2cnccn2)n1)C1CC2(CCNCC2)CN1 (configuration not stated),i
O=C(COc1cccc(-c2nnc3n2CCCC3)c1)Nc1ccc(Cl)cc1F,i
COc1ccccc1CNC(=O)CCCc1nnc2n3nc(-c4ccccc4)nc3c3ccccc3n12,i
CN(C)S(=O)(=O)N1CCC2(CCC(=O)N(CC3CC3)CC2)CC1,i
CC(C)(O)C1CC(=O)C2(C)C(CCC3(C)C(c4ccoc4)OC(=O)C4OC432)C12CCC(=O)OC2 (configuration not stated),i
Cc1cn2nnc(C(=O)NCc3ccc(C(C)C)cc3)c2c(=O)[nH]1,i
N[C@H](C(=O)O)[C@H](O)C(=O)O,i
Cc1ccccc1CC(=O)Nc1cccc(-c2nnc3n2CCCC3)c1,i
C=CCC1(CO)CCCN(C(=O)CCCn2nc(C)cc2C)C1 (configuration not stated),i
CC(C)CCn1c(=O)c2ccccc2n2c(CCC(=O)NCCc3c[nH]c4ccccc34)nnc12,i
C=C[C@@](C)(O)CC/C=C(\C)C(=O)O[C@@H]1[C@@H]2O[C@]2(C)[C@H]2[C@H](O[C@@H]3O[C@H](CO)[C@@H](O)[C@H](O)[C@H]3O)OC=C[C@@]12O,i
CCCn1c(=O)c2ccc(C(=O)NC(C)C)cc2n2c(=O)n(CC(=O)Nc3cc(C)cc(C)c3)nc12,i
CCOC(=O)c1cc2n(n1)CC(C)(C(=O)NC1CCCC1)N(c1cc(C)cc(C)c1)C2=O (configuration not stated),i
CC(C)CNC(=O)c1ccc2c(=O)n(C(C)C)c3nn(CC(=O)NC(C)(C)C)c(=O)n3c2c1,i
Cc1ccc(C(N)=O)cc1Nc1nccc(-c2cn(C(C)C)c3cnccc23)n1,+

# A section of the results above:
canonical_smiles,Methyltransferases
CCOC(=O)c1cc2n(n1)CC(C)(C(=O)NC1CCCC1)N(c1cc(C)cc(C)c1)C2=O (configuration not stated),i
CC(C)CNC(=O)c1ccc2c(=O)n(C(C)C)c3nn(CC(=O)NC(C)(C)C)c(=O)n3c2c1,i
Cc1ccc(C(N)=O)cc1Nc1nccc(-c2cn(C(C)C)c3cnccc23)n1,+

# (continued)
canonical_smiles,Methyltransferases
Cc1ccc(C(C)C)c(O[C@@H]2O[C@H](CO)[C@@H](O)[C@H](O)[C@H]2O)c1,i
CCCn1c(=O)c2ccc(C(=O)NCC(C)C)cc2n2c(=O)n(CC(=O)Nc3ccccc3CC)nc12,i
COc1cccc(CNC(=O)c2cc3n(n2)CC(C)(C(=O)NC2CCCC2)N(C)C3=O)c1 (configuration not stated),i
CCC(C)NC(=O)c1ccc2c(=O)n(C(C)C)c3nn(Cc4cccc(C)c4)c(=O)n3c2c1 (configuration not stated),i
O=C(c1ccc(Cn2cccn2)o1)N1CCC2(CC1)[C@H](O)C[C@@H]2O,i
COC(=O)c1ncn2c1C(=O)N(Cc1ccccc1)C(C)(C(=O)NC1CCCC1)C2 (configuration not stated),i
C[C@H]1[C@@H]2[C@@H](O)C([C@H](C)C(=O)N3CCCC3)CC[C@@]2(C)CC[C@@H]1NC(=O)Nc1cccc(F)c1 (some centres not stated),i
CC1CCN([C@@H]2[C@H](O)[C@H](CO)O[C@@H]2CNC(=O)c2cccs2)CC1,i
CCc1cc2c(cc3n2CC(C)(C(=O)NC2CCCCCC2)N(C(C)c2ccccc2)C3=O)s1 (configuration not stated),i
CCCC1c2cccn2CCN1C(=O)NC1CCCCC1 (configuration not stated),i
O=[S+]1([O-])c2cccnc2OC(Cn2cccc2)CN1Cc1cccc(F)c1 (configuration not stated),i
COc1cc2c(cc1CN1CCn3nc(C(O)CO)cc3C1)OCCO2 (configuration not stated),i
O[C@H]1CC[C@@H](Cc2cc(-c3ccc(F)cc3)on2)O[C@@H]1CNC1CCCCC1,i
CCCC1c2ccc(C)n2CCN1C(=O)Nc1cc(C)ccc1C (configuration not stated),i
O=S(=O)(c1ccccc1)c1nnn2c1nc(NCc1ccc(F)cc1)c1ccccc12,i
CCCNC(=O)N[C@@H]1CCC[C@@H](C(=O)N(CC)CC)CC(=O)N(C)C1,i
O=C1C(N2CCN(S(=O)(=O)c3cc(F)ccc3F)CC2)CCN1Cc1cccnc1 (configuration not stated),i
COc1ccc(-c2ccccc2C(=O)N2CCCC2)nn1,i
CCOc1ccc(N2C(=O)c3c(C(=O)OC)ncn3CC2(C)C(=O)NC2CCCC2)cc1 (configuration not stated),i
CC(=O)c1ccc(O[C@@H]2O[C@H](CO[C@@H]3OC[C@@H](O)[C@H](O)[C@H]3O)[C@@H](O)[C@H](O)[C@H]2O)cc1,i

# Molecules above containing an aryl methoxy group:
canonical_smiles,Methyltransferases
COc1ccccc1CNC(=O)CCCc1nnc2n3nc(-c4ccccc4)nc3c3ccccc3n12,i
COc1cccc(CNC(=O)c2cc3n(n2)CC(C)(C(=O)NC2CCCC2)N(C)C3=O)c1 (configuration not stated),i
COc1cc2c(cc1CN1CCn3nc(C(O)CO)cc3C1)OCCO2 (configuration not stated),i
COc1ccc(-c2ccccc2C(=O)N2CCCC2)nn1,i

# Next part
canonical_smiles,Methyltransferases
CCC(C)NC(=O)Cn1nc2n(C)c(=O)c3ccc(C(=O)NC4CCCCC4)cc3n2c1=O (configuration not stated),i
CCOCCCN1C(=O)c2cc3occc3n2CC1(C)C(=O)NC1CCCCCCC1 (configuration not stated),i
Cc1ccc(C(=O)Cn2nc3n(CC(C)C)c(=O)c4ccc(C(=O)NC(C)C)cc4n3c2=O)cc1,i
O=C(CCn1cncn1)N1CCC2(CCC(=O)N(CCc3ccncc3)C2)CC1,i
COC[C@@H]1[C@H](C(=O)N2CCN(Cc3ccccc3)CC2)CCC(=O)N1C,i
CCC(C)NC(=O)N1CCn2nnc(CCC(=O)N3CCOCC3)c2C1 (configuration not stated),i
COc1cccc(CN2CCOC[C@H](Oc3ccc(C(F)(F)F)cn3)C2)c1,i
COCCN1C(=O)CS(=O)C12CCN(S(=O)(=O)c1ccccc1)CC2 (configuration not stated),i
Cc1ccc(CSc2nnc3n(Cc4ccccc4)c(=O)c4ccccc4n23)cc1,i
CCCCN1C(=O)c2cc(C(=O)NC3CCCCC3)nn2CC1(C)C(=O)NC1CCCC1 (configuration not stated),i
CC(=O)N[C@@H]1CN(C(=O)CCc2c[nH]c3ccccc23)C[C@H]1CO,i
CNC(=O)c1cc(C2CC2)nc2onc(C3CCN(C(=O)c4ccc(Cl)nc4)C3)c12 (configuration not stated),i
CN(C)C1CCN(C(=O)c2ccc(NC(=O)Nc3nc(N4CCOCC4)nc(N4CCOCC4)n3)cc2)CC1,?
CCCCN1C(=O)c2cc(C(=O)N3CCC(N4CCCCC4)CC3)nn2CC1(C)C(=O)NC1CCCC1 (configuration not stated),i
COc1ccc(Cl)cc1S(=O)(=O)Nc1ccc2[nH]c(=O)[nH]c2c1,i
O=C(N1CCC(Cc2nc(-c3ccc(F)cc3)no2)CC1)C1(c2ccccc2)CC1,i
Cc1cccc(OCC(=O)c2ccc3c(c2)N(C(C)C(=O)N2CCOCC2)C(=O)CO3)c1C (configuration not stated),i
CCCCNC(=O)c1ccc2c(=O)nc3c(-c4ccc(OC)cc4)n[nH]n3c2c1,i
C/C=C(\C)C(=O)OC1C=C(C)CC(OC(=O)c2ccc(O)cc2)C2C1(C)CCC2(O)C(C)C (configuration not stated),i
Cc1nc(N2CCC(NC(=O)c3cccnc3)CC2)cc(C(F)(F)F)n1,i

# Continuation:
canonical_smiles,Methyltransferases
CC(=O)N1CCC(N[C@H]2C[C@@H](Cc3cc(CN(C)C)on3)C2(C)C)CC1,i
CC1(C(=O)NC2CCCCC2)Cn2c(nc3ccccc32)C(=O)N1Cc1ccc2c(c1)OCO2 (configuration not stated),i
Cc1ccc(C(=O)N(C)CC2CCOC2)cc1 (configuration not stated),i
CCC(C)(Oc1ccc(C2(c3ccc(OC(C)(CC)C(=O)O)cc3)CCCCC2)cc1)C(=O)O (configuration not stated),i
CC(C)CNC(=O)c1ccc2c(=O)n(Cc3ccccc3)c3nn(Cc4ccccc4Cl)c(=O)n3c2c1,i
Cc1ccccc1C(=O)Nc1ccc(C(=O)N2CCCC(N(C)C)c3ccccc32)cc1 (configuration not stated),i
CCC(C)NC(=O)c1ccc2c(=O)n(C)c3nn(CC(=O)NC4CCCCC4)c(=O)n3c2c1 (configuration not stated),i
Cc1ccc(Cn2c(=O)c3ccccc3n3c(-c4ccc(Br)cc4)nnc23)cc1,i
COC(=O)[C@]1(C)CCC[C@@]2(C)[C@@H]3CC[C@@H]4C[C@@]3(CC[C@@H]21)C[C@H]4C(=O)O,i
C=CCNC(=O)C(NC(=O)c1ccc(OC)cc1)C1CCN(C(=O)CCc2ccccc2)CC1 (configuration not stated),i
CCCc1nc(C(=O)N2CC[C@H](CO)[C@H](O)C2)cs1,i
COc1ccc(-c2cc3n(n2)CC(C)(C(=O)NCc2ccccc2)N(Cc2ccc(N(C)C)cc2)C3=O)cc1 (configuration not stated),i
COc1ccc(S(=O)(=O)c2nnn3c2nc(Nc2ccc(C)cc2)c2ccccc23)cc1,i
CCCN1C(=O)c2cc(C(=O)NCc3cc(Br)ccc3OC)nn2CC1(C)C(=O)NC1CCCC1 (configuration not stated),i
COc1ccccc1-c1nnc2n(Cc3ccccc3)c(=O)c3ccccc3n12,i
Cc1ccc(OCCC2CCN(C(=O)Cn3cnc4c3c(=O)n(C)c(=O)n4C)C2)cc1 (configuration not stated),i
COCCc1noc(-c2ccc(Cn3nc(C)cc3C)cc2)n1,i
CSc1ccc(N2C(=O)c3ccccc3CC2(C)C(=O)NCc2ccccc2)cc1 (configuration not stated),i
COc1cccc(CCC(=O)N2CC(F)(F)C[C@H]2c2nc(C)no2)c1,i
NCC(O)C1CCCCCCC1 (configuration not stated),i

# Continuation:
canonical_smiles,Methyltransferases
Cn1cc(-c2ccc(S(=O)(=O)n3ccc(/C=C/C(=O)Nc4ccccc4N)c3)cc2)cn1,?
CC1(COCC2CC2)COc2ccc(C(=O)Nc3cccc([S+](C)(=O)[O-])c3)cc2N1 (configuration not stated),i
COc1ccc(C2=NOC(C(=O)N3CCN(c4ccc(F)cc4)CC3)C2)cc1 (configuration not stated),i
CC(C)(O)C1CC=C(C(=O)OC[C@H]2O[C@@H](Oc3cc(C(=O)O)cc(O)c3O)[C@H](O)[C@@H](O)[C@@H]2O)CC1 (some centres not stated),+
NCc1c[nH]c(=S)n1C1CCc2c(F)cc(F)cc2C1 (configuration not stated),i
CCOc1cc(CC(=O)NC(CC(C)C)c2ccccc2N2CCCCC2)ccc1C(=O)O (configuration not stated),?
O=C([C@@H]1C[C@H](Oc2cccnc2)CN1S(=O)(=O)c1cccs1)N1CCCC1,i
Cc1ccc(C(=O)CSc2nnc3n(C)c(=O)c4ccc(C(=O)NC5CCCC5)cc4n23)c(C)c1,i
CCc1ccc(NC(=O)CSc2nnc3n(CCC(C)C)c(=O)c4ccccc4n23)cc1,i
Cc1ccccc1CNC(=O)c1cc2cn(C(C)C)cc2s1,i
CCOCCCNC(=O)N1Cc2c(sc3c2CCCC3)-n2cccc2C1c1ccc(C)cc1 (configuration not stated),i
CCC(C)C(N)C1=NC(C(=O)N[C@@H](CC(C)C)C(=O)N[C@H](CCC(=O)O)C(=O)N[C@H](C(=O)N[C@H]2CCCCNC(=O)[C@H](CC(N)=O)NC(=O)[C@@H](CC(=O)O)NC(=O)[C@H](Cc3cnc[nH]3)NC(=O)[C@@H](Cc3ccccc3)NC(=O)[C@H]([C@@H](C)CC)NC(=O)[C@@H](CCCN)NC2=O)[C@@H](C)CC)CS1 (some centres not stated),i
COc1cc(/C=C/CO)cc(OC)c1O[C@@H]1O[C@H](CO[C@@H]2O[C@H](CO)[C@@H](O)[C@H](O)[C@H]2O)[C@@H](O)[C@H](O)[C@H]1O,i
O=P(O)(O)C(O)(Cc1cccnc1)P(=O)(O)O,?
COc1ccc(-c2nc3c(c(-c4ccccc4)n2)CN(C(=O)c2ccc(F)cc2)CC3)cc1,i
C=C[C@H]1[C@H](O[C@@H]2O[C@H](CO)[C@@H](O)[C@H](O)[C@H]2O)OC=C(C(=O)OC)[C@H]1C[C@@H]1N[C@H](C(=O)O)Cc2c1[nH]c1ccccc21,i
O=C(NC1CCCC1)NC1CCN(c2nc3ncccc3o2)C1 (configuration not stated),i
Cn1c(=O)c2ccc(C(=O)NC3CCCC3)cc2n2c(=O)n(Cc3ccc(F)cc3)nc12,i
O=C(c1cnc2n1CCN(CCc1ccccc1)CC2)N1CCC(c2ccccc2)CC1,i
Cn1c(=O)c2ccc(C(=O)NC3CCCCC3)cc2n2c(=O)n(Cc3ccccc3F)nc12,i

# Further records.
canonical_smiles,Methyltransferases
COCCN1CCCC1c1nc(C2CN(C(=O)c3ccccc3OC)C2)no1 (configuration not stated),i
Cc1ccccc1CN1CC2(COCC1=O)CN(c1ccc(C(F)(F)F)cn1)C2,i
CC(C)N1C[C@@H](C(=O)O)C[C@H](C(=O)Nc2ccc(F)cc2)C1,i
CC1(C(=O)NC2CCCCCCC2)Cn2c(cc3sccc32)C(=O)N1CCCN1CCOCC1 (configuration not stated),i

# Screens from PubChem.

# Only part of the results is shown; the hit share may differ from the screen's.
